# Assay outcomes: PubChem BioAssay, Fisher Drug Discovery Resource Center
# NPYLR7 ag – activates Aedes aegypti NPYLR7 receptor. activation, % at 10 µM. hit rate 0.15% among 270,000. HEK293T NPYLR7/Galpha15, GCaMP6s calcium fluorescence; in the data active = activation above about 40%;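 note: 0% = vehicle and 100% = reference agonist at the receptor; some compounds past the cut are filed as inactive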
# NPYLR7 ag max-min – further read-out of NPYLR7 ag, marked with its call; activation, %; measured here: Max-Min RFU normalised activation; some inactives read as strong as hits;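 span of the calcium signal over five minutes; 0% = vehicle and 100% = native peptide agonist; compound fluorescence can raise it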
# The depositor's hits bear a star; & = joins results of further samples. An excerpt. The share of hits here may be higher or lower than overall.
SMILES,NPYLR7 ag,NPYLR7 ag max-min
CC(C(=O)NC1CCCCCC1)N1CCN(S(=O)(=O)c2ccccc2)CC1 (stereo not drawn),-2.5,-1.8
CN(CC(F)F)C1CCN(CCOc2cccc(C(C)(C)C)c2)CC1,-1.7,-3.3
COc1ccc(C(C)NC(=O)N2CCC(C#N)CC2)cc1Br (stereo not drawn),14.2,15.6
O=C(NCc1ccco1)OCC(F)(F)F,3.2,5.0
Cc1c(CCC(=O)N2CCC(C(N)=O)CC2)c(=O)oc2c(C)c(O)ccc12,-11.5,-17.9
Cc1ccc([N+](=O)[O-])c(OCC(=O)N(C)Cc2cnn(-c3ccccc3)c2)c1,3.7,2.3
COCc1cccc(CNC(=O)N(Cc2ccc(C)o2)C(C)C)c1,7.0,5.7
CC1CN(S(=O)(=O)c2ccc(C(=O)O)cc2)c2ccccc21 (stereo not drawn),5.0,0.5
CN1CCCC(CSc2nnc(NCC(F)(F)F)s2)C1 (stereo not drawn),6.6,3.4
COc1ccccc1-c1nc(CSc2nc(-c3ccccc3)cc(=O)[nH]2)c(C)o1,-0.6,-3.9
CCc1noc(CS(=O)(=O)C(C)c2ccc(F)cc2)n1 (stereo not drawn),5.8,3.9
CCCCCc1ccc(C(=O)N2CCN(c3nc(C)nc(C)c3Cc3ccccc3Cl)CC2)cc1,3.5,8.9
O=C(CC(c1ccccc1)c1ccc(Cl)cc1)NCCN1CCOC1=O (stereo not drawn),9.9,14.4
Cc1cccc(C(=O)N2CCN(C(C(=O)NCc3ccccn3)C3CCCC3)CC2)c1 (stereo not drawn),-7.6,0.2
CCOC(=O)C(C)Sc1nnc(CNC(=O)c2ccc(OC)cc2)n1CC (stereo not drawn),1.5,-1.7
CC(=O)NC(=Nc1nc(C)cc(C)n1)Nc1cccc(C(F)(F)F)c1,-6.3,-12.8
CCc1ccc(-c2nc(C)c(C(C)=O)n2O)cc1,16.1,8.9
COc1ccc(CCn2c3c(c(=S)[nH]c2=O)CCC3)cc1,0.7,-1.5
Cc1nn(CC(=O)N(C)C2CCS(=O)(=O)C2)c(C)c1S(=O)(=O)N(C)C (stereo not drawn),5.8,3.6
CCC(=O)Nc1cccc(-n2nc(OCCc3ccc(OC)cc3)nc2-c2ccco2)c1,16.0,28.2
Cc1sc2nc(C(C)N3CCCCC3C)[nH]c(=O)c2c1C (stereo not drawn),8.5,12.9
O=C(CN(CC1CCCO1)C(=O)c1cc(C(F)(F)F)cc(C(F)(F)F)c1)N(Cc1ccc2c(c1)OCO2)Cc1cccs1 (stereo not drawn),-2.5,6.7
CN(CCNC(=O)C(F)(F)F)C(=O)Nc1cccc(F)c1,-7.9,-17.4
O=C(CSc1nnc(-c2ccco2)o1)c1cc2ccccc2oc1=O,0.3,-0.5
CCc1nn2c(nnc3c(=O)n(N4CCN(C)CC4)ccc32)c1-c1ccc(Cl)cc1,1.5,-1.2

# Brought forward from above: three compounds, then new ones.
SMILES,NPYLR7 ag,NPYLR7 ag max-min
CN(CCNC(=O)C(F)(F)F)C(=O)Nc1cccc(F)c1,-7.9,-17.4
O=C(CSc1nnc(-c2ccco2)o1)c1cc2ccccc2oc1=O,0.3,-0.5
CCc1nn2c(nnc3c(=O)n(N4CCN(C)CC4)ccc32)c1-c1ccc(Cl)cc1,1.5,-1.2
O=C(NCCNC(=O)C1CC1)c1sc(N2CCCC2)nc1Cl,0.1,-1.3
COc1ccc(OC)c(/C=N\NC(=O)CSc2nc3ccccc3n2Cc2ccccc2)c1,-4.5,-10.6
CCc1c(C)nc(-n2nc(C)cc2NC(=O)c2cc(=O)c3ccccc3o2)[nH]c1=O,16.0,8.3
O=C(ONC1=NCCCCC1)c1ccc([N+](=O)[O-])o1,0.1,33.1
CCOC(=O)c1sc(NC(=O)Cn2ncc(Cl)c(Cl)c2=O)cc1C,-1.0,-0.3
O=C(O)c1ccccc1C(c1ccc(O)cc1)c1ccc(O)cc1,-21.8,-32.6
COc1cccc(CO[C@]2(C(=O)NCCN3CCOCC3)CC(OCc3cccc(C(F)(F)F)c3)[C@@H]3OC(C)(C)O[C@@H]3C2)c1 (stereo partly drawn),10.3,-6.4
O=C(O)c1ccoc1CSC(F)F,1.0,-0.3
CN(C)Cc1ccc(CNCc2cnc(-c3ccccc3)s2)cc1,5.6,4.0
CC(C)CC(C(=O)N1CCOCC1)N1C(=O)CSC1c1ccc(F)cc1F (stereo not drawn),4.6,7.2
CCOC(=O)N1CCC(N2CCOc3ccc(CN4CCCCC4C(=O)OC)cc3C2)CC1 (stereo not drawn),19.8,6.2
Cc1ccc(-c2csc3ncn(CC(=O)c4cc(C)n(C5CC5)c4C)c(=O)c23)s1,0.8,5.0
Cc1ccc(C(NC(=O)c2ccc(-n3cnnc3)cc2)c2cccs2)cc1 (stereo not drawn),-7.4,-13.5
CC1=CC[C@@H]2CN(C(=O)CSc3nccn3C)C[C@@H]2C1,0.0,-2.2
CCOc1ccc(C2c3[nH]c4ccccc4c3CCN2Cc2cnc(SC)nc2)cc1 (stereo not drawn),7.0,1.8
CC(C)CNc1ccc2c(n1)C(=O)N([C@H](C)C(=O)NCc1ccc(N(C)C)cc1)C2,5.9,4.3
COCCNC(=O)C1(C)CCCN(Cc2ccnc3ccccc23)C1 (stereo not drawn),0.1,1.4
COc1ccc(-c2cc(C(=O)O)c3[nH]c(-c4ccccc4)nc3n2)cc1O,0.1,-1.2
CNC(=O)C1CCCN(S(=O)(=O)N2CCCC2)C1 (stereo not drawn),7.7,3.3
CC(=O)OC(C(=O)NCCCOc1cccc([N+](=O)[O-])c1)c1ccccc1 (stereo not drawn),-1.2,-6.5
O=C(CCC1CCCC1)NNC(=O)CC12CC3CC(CC(C3)C1)C2,12.0,12.4
CCCC(C)N(C)S(=O)(=O)c1ccccc1C(=O)O (stereo not drawn),4.2,2.5
O=C(NCC(c1cccc2ccccc12)N1CCCC1)C(=O)NC1CCCCC1 (stereo not drawn),9.8,17.5
O=C1c2ncccc2[C@H](CCO)[C@@H](CO)N1Cc1ccccc1,2.2,12.7
O=C1CC[C@@H](CN(Cc2ccncc2)C(=O)c2cn(Cc3ccccc3F)nn2)N1,2.7,-0.8

# The results go on:
SMILES,NPYLR7 ag,NPYLR7 ag max-min
COc1cc([C@H]2CN(Cc3ccccc3)C[C@@H]2C(=O)N2CCCC(CO)C2)cc(OC)c1OC (stereo partly drawn),-0.4,-0.9
COc1ccccc1C(=O)N1CCN(Cc2cccc3nccnc23)CC1,6.9,5.6
CCC(=O)NC1CCCN(Cc2csc(-c3ccccc3F)n2)C1 (stereo not drawn),-4.3,-4.3
CCCCOC(=O)Nc1nnc(C(C)C)s1,2.6,0.3
O=C(NCc1nnc(SCC(=O)N2CCc3ccccc32)n1-c1cccc(C(F)(F)F)c1)c1cccs1,10.5,10.8
Cc1[nH][nH]c(=O)c1CC(=O)NCc1cnn(-c2cccc(F)c2)c1,3.0,-0.1
CC(C)OCCCNc1nc(Nc2ccc3c(c2)OCO3)c2cnn(-c3ccccc3)c2n1,0.8,-0.4
CC(C)C(C)N(Cc1cc(NC(=O)c2cccs2)ccc1N(C)C)S(=O)(=O)c1cccc(Cl)c1 (stereo not drawn),7.7,20.2
O=C(O)c1ccc(Cl)cc1N=Cc1nc(-c2ccccc2F)oc1O,-6.8,-8.4
CCn1c2ccccc2c2cc(C3C(C#N)=C(C)N=C(C)C3C#N)ccc21 (stereo not drawn),1.3,-2.6
Cc1cc(=O)n2nc(NC(C)C(=O)NCc3ccco3)sc2n1 (stereo not drawn),3.2,1.1
CCCCNC(=O)N1CCN(c2cc(Cl)nc(SCC(=O)N3CCOCC3)n2)CC1C (stereo not drawn),19.3,24.8
O=C1NC(=O)C(CC(=O)N2CCN(Cc3cc(=O)c(OCc4ccccc4Cl)co3)CC2)N1 (stereo not drawn),21.8,36.1
OCCCn1cnc(-c2ccccc2)c1-c1ccccc1Cn1cccn1,7.4,5.9
O=C(COCc1nc2ccccc2s1)N1CCN(C2CCS(=O)(=O)C2)CC1 (stereo not drawn),7.6,4.6
CCCCOC(=O)C1=C(C)NC2=C(C(=O)CCC2)C1c1cc(Cl)c(O)c(OC)c1 (stereo not drawn),2.9,2.4
O=C(COc1cccc(Cl)c1)N1CCN(c2nccc(-c3ccc4c(c3)OCO4)n2)CC1,24.7,27.3
CC(=O)Nc1cc(NC(C)=O)cc(C(=O)N2CC(C)CC(C)C2)c1 (stereo not drawn),12.9,3.6
CCCCCc1ccc(C(=O)N(CCOC)Cc2cccc(OS(=O)(=O)c3cccc(C(F)(F)F)c3)c2)cc1,9.2,6.4
COc1ccc(NC(=O)CSc2nc3[nH]ncc3c(=O)[nH]2)cc1,-1.1,-1.2
CC(O)(CC(=O)O)CC(=O)O,-6.8,-4.0
COc1ccc(NC(=O)C2(C)CCN2Cc2ccc3c(c2)OCCO3)cc1OC (stereo not drawn),2.4,-6.9
Cc1cc(N2CCNC(=O)CC2)nc(-c2ccccc2)n1,-1.5,-5.0
CCOC(=O)C(c1ccc(OC)c(OC)c1)C1C=CC(NS(=O)(=O)c2ccccc2OC(F)(F)F)C1 (stereo not drawn),19.0,19.8
C=CCN=c1scc(-c2ccco2)n1N=Cc1c[nH]c2ccccc12,-1.7,9.1

# Structural class: the compounds so far with a cyano group (2)
SMILES,NPYLR7 ag,NPYLR7 ag max-min
COc1ccc(C(C)NC(=O)N2CCC(C#N)CC2)cc1Br (stereo not drawn),14.2,15.6
CCn1c2ccccc2c2cc(C3C(C#N)=C(C)N=C(C)C3C#N)ccc21 (stereo not drawn),1.3,-2.6

# Continuation:
SMILES,NPYLR7 ag,NPYLR7 ag max-min
COc1cccc(CN2CC(C(=O)N3CCC(Oc4cccnc4)CC3)CCC2=O)c1 (stereo not drawn),5.9,4.0
CC1CCc2c(sc3ncnc(OCC(=O)c4ccc(Cl)s4)c23)C1 (stereo not drawn),3.9,7.3
O=C(O)CCCCCCCNc1ccn(OCc2ccccc2)c(=O)n1,7.8,1.2
COc1cc(/C=C2\N=C(c3cccc(Cl)c3)OC2=O)ccc1OC(C)=O,-25.5,-28.3
CCNC(=S)N1CCc2cc(OC)c(OC)cc2C1CNC(=O)COC (stereo not drawn),-0.7,9.6
CN(C)C(=O)C1OC(C)(C)OC1C(=O)N(C)C (stereo not drawn),-17.5,-23.7
NC(=O)c1ccccc1OCc1nnsc1Cl,8.7,4.9
Clc1ccccc1OCCn1c2ccccc2c2nc3ccccc3nc21,1.4,1.0
CC1CCCC(N2CC(C(=O)NNC(=O)c3cccs3)CC2=O)C1C (stereo not drawn),5.4,1.4
CCc1ccc(NC(=O)CNc2ccc(F)c(F)c2F)cc1,1.7,0.2
O=C(NC1CC1)C1CNCCN1C(=O)c1cnn2c1CCCC2 (stereo not drawn),2.7,-1.2
CCOC(=O)CC(=O)CSC1=C(C#N)C(c2ccccc2F)C(C(=O)OCC)C(=O)N1 (stereo not drawn),-6.9,-5.5
COc1ccc(C2Nc3ccccc3N=C3CC(c4ccc(Cl)cc4)CC(=O)C32)cc1 (stereo not drawn),-5.4,-9.0
Cc1ccccc1C(O)CNC(=O)c1ccc(-n2cncn2)c(F)c1 (stereo not drawn),1.9,-1.0
Cc1cc(Cl)cc2c(N=Nc3ccc([N+](=O)[O-])cc3)c(O)[nH]c12,-1.7,-3.0
CCc1ccc(C(=O)N2CCC3(CC2)OCC(C(=O)N2CCCC2)N3C(=O)c2cccc(C)c2)cc1 (stereo not drawn),0.3,8.4
COc1ccc(Nc2nccc3c2cc(-c2ccccc2)n3C)cn1,-5.4,-10.1
COC(=O)C1CCCN1C(=O)c1ccc(-c2ccc(F)cc2)o1 (stereo not drawn),10.2,8.1
Cc1cc(Cl)ccc1N=Cc1nc(-c2ccc(Cl)cc2)oc1O,0.0,6.9
Cc1nc2ccccn2c1CC(=O)NCc1nc(-c2ccccc2)no1,6.4,5.9
COC(=O)c1ccc(-c2noc(CN3CCCCC3CCc3ccccn3)n2)cc1 (stereo not drawn),-3.9,-7.0
Cc1nnc(NC(=O)CSc2nc(=O)n(CCO)c3c2CCC3)s1,-10.8,-18.1
COc1ccc(C(C)=O)cc1CC(=O)N1CC=C(c2ccccc2)CC1,0.2,-1.2
CCc1nn(C)c(NC(=O)c2cccc(CN3CCCC3C)c2)c1CC (stereo not drawn),-3.0,-2.2
O=C1CCCN1CC1CCN(C(=O)c2ccc(N3CC=CC3)nc2)CC1,20.3,15.3

# Part of the list above, with tabs:
Structure	NPYLR7 ag	NPYLR7 ag max-min
O=C(CN(CC1CCCO1)C(=O)c1cc(C(F)(F)F)cc(C(F)(F)F)c1)N(Cc1ccc2c(c1)OCO2)Cc1cccs1 (stereo not drawn)	-2.5	6.7
Cc1cccc(C(=O)N2CCN(C(C(=O)NCc3ccccn3)C3CCCC3)CC2)c1 (stereo not drawn)	-7.6	0.2
Cc1ccc(C(NC(=O)c2ccc(-n3cnnc3)cc2)c2cccs2)cc1 (stereo not drawn)	-7.4	-13.5
CCCCOC(=O)C1=C(C)NC2=C(C(=O)CCC2)C1c1cc(Cl)c(O)c(OC)c1 (stereo not drawn)	2.9	2.4

# (next part)
SMILES,NPYLR7 ag,NPYLR7 ag max-min
O=c1[nH]c(/C(Cl)=C/c2ccsc2)nc2cc(C(F)(F)F)ccc12,0.2&6.4,-2.7&2.2
COc1cc2c(cc1OC)C(c1cccc(C(F)(F)F)c1)N(C(=O)/C=C/c1ccccc1)CC2 (stereo not drawn),15.9,9.9
C=C(C)COc1ccc(C(=O)NC(C)c2ccc(C)cn2)cc1 (stereo not drawn),-3.0,-7.7
Cn1cc(CN2CCN(Cc3nccn3C)CC2)c(-c2ccc3c(c2)OCCO3)n1,19.5&3.4,2.6&-1.5
CCOC(=O)c1cnc(-c2ccncc2)nc1NCc1c(C)nn(C)c1C,13.7,15.0
COc1cccc(C(=O)Nc2cc3c4c(c2)C(C)C(=O)N4CCC3)c1OC (stereo not drawn),7.7,1.9
Cc1nnc(SCc2nc(-c3cccs3)no2)n1C1CC1,-3.3,-2.5
Cc1c(C)n2c3c(=O)n(CC(=O)OCc4ccccc4)c(=O)n(C)c3nc2n1Cc1ccco1,4.0,1.6
Cc1cc(-c2csc(C3CC3)n2)c(C)n1-c1ncn[nH]1,0.9,5.4
Cc1cc(NC(=O)c2ccccc2Cl)sc1C(=O)N1C(C(N)=O)CC2CCCCC21 (stereo not drawn),-7.4,-8.2
